VDR inhibitor: Inhibitors of the vitamin D receptor (VDR): qHTS; VDR-SRC2-3 peptide fluorescence polarization, 2 h; Vitamin D3 receptor (Homo sapiens), P11473; hit rate 0.93% among 400,000; Potency, µM, for the others: max response, negative = inhibition, actives largely listed as inhibitors; active = well fitted inhibition curve with a large enough effect; inconclusive = small, poorly fitted or top-dose-only effect, or another doubt; inactive = no such curve, though single readings can be large or run the other way; note: series mostly up to about 120 µM
Target sequence (P11473 whole entry, looked up): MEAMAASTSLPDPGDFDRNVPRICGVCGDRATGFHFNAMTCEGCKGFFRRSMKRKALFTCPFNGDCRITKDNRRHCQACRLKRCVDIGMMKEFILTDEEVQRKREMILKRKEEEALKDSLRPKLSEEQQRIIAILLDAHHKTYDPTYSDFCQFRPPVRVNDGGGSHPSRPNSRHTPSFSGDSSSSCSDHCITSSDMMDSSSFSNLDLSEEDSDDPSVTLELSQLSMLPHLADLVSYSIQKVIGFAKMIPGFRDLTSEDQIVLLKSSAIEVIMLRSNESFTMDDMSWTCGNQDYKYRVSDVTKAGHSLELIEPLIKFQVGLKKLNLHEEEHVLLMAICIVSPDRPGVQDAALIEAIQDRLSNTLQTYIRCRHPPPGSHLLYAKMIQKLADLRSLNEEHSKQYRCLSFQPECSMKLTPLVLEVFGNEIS
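Fluorescence polarization assay of small-molecule disruption of VDR binding to coregulator peptide SRC2-3. Compounds and controls pin-transferred, then read after 2 h incubation at ambient room temperature.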
Numbers without * were called inactive; ? = inconclusive; & = joins results of further samples. % is set by controls: 0 for no effect and ±100 for the full control effect; potency is the fitted concentration of half-maximal effect. A portion of the library; the hit share may differ from the screen's.

Structure	VDR inhibitor
Cc1cc(C)nc(-n2nc(C)c3c2NC(=O)CC3c2cc(F)ccc2F)n1 (stereo unspecified)	3%
COc1cc(OC)nc(Oc2cccc(C(F)(F)F)c2)n1	-6%
Cc1ccc(NC(=O)CN2C(=O)C3CC=C(Cl)CC3C2=O)cc1 (stereo unspecified)	0%
CCOC(=O)C1=C(N)OC2=C(C(=O)CCC2)C1c1ccccc1OCC (stereo unspecified)	-2%
Cn1ncc(Cl)c1C(=O)N/N=C/c1cccc(OC2CSC2)c1	-9%
CC(C)CCNC(=O)CN1C(=O)c2cccnc2Oc2ccccc21	-9%
CCS(=O)(=O)c1ncc(N(Cc2ccccc2)Cc2ccco2)c(C(=O)Nc2ccc(C)c(C)c2)n1	9%
COc1ccccc1N1CCN(C2CC(=O)N(c3ccc(F)cc3)C2=O)CC1 (stereo unspecified)	4%
C#CCOCCOCCOCCNc1nc(N2CCN(C(=O)Cn3cc(CCCCN)nn3)CC2)nc(N2CCN(C(=O)[C@H]([C@@H](C)CC)n3cc(CCCN=C(N)N)nn3)CC2)n1	-20%
CCOC(=O)C1=C(CN2CCN(c3ccc(Cl)cc3)CC2)NC(=O)NC1c1ccc(OC)cc1 (stereo unspecified)	-6%
O=C1C(C=Nc2ccccc2)=C(O)c2ccccc21	8%
CCC1(c2ccccc2)NC(=O)N(CC(=O)Nc2ccc3c(c2)OCO3)C1=O (stereo unspecified)	4%
CC(NC(=O)CN1C(=O)c2cccnc2Oc2ccc(Cl)cc21)c1ccccc1 (stereo unspecified)	5%
CN1CCN(c2ccccc2NC(=O)c2ccc(-c3ccc(Br)cc3)o2)CC1	6%
Cc1ccccc1CSc1nc2nc(C)c(Cc3ccccc3)c(C)n2n1	5%
COc1ccc(S(=O)(=O)N[C@H](C(=O)N2CC[C@@]3(O)CCCC[C@H]3C2)c2ccccc2)cc1	2%
CCOc1ccc(CCNC(=O)CN2C(=O)C(CC)Oc3ccccc32)cc1OCC (stereo unspecified)	-2%
COc1ccc(-c2c(C)nn3c(N4CCN(Cc5ccccc5)CC4)cc(C)nc23)cc1OC	19%
CC(C)=CCOc1ccc([C@@H]2COc3c(ccc4c3C=CC(C)(C)O4)C2)c(O)c1	-2%
COc1ccc(S(=O)(=O)N(CC(=O)Nc2ccc(S(=O)(=O)N3CCOCC3)cc2)c2ccccc2)cc1	-8%
CC(C)C[C@H](NC(=O)c1cc2cc(Cl)ccc2n1C)C(=O)N1CCC[C@H]1C(=O)O	-6%
Cn1c(SCC(=O)NC2CC2)nnc1-c1ccccc1	-5%
O=C(c1ccccc1)c1nc2ccccc2n(CCCn2c(=O)c(C(=O)c3ccccc3)nc3ccccc32)c1=O	4%
Fc1ccc(NCc2nnc(SCc3nnc(-c4ccccc4)o3)n2Cc2ccccc2)cc1	-3%
Cc1cc(C)c(S(=O)(=O)c2ccccc2)c(OC(=O)c2cc(F)c(F)cc2Cl)n1	-18%

More structures.
Structure	VDR inhibitor
COCc1[nH]nc2c1C(c1cccc(OC)c1)C(C#N)=C(N)O2 (stereo unspecified)	15%
CCOC(=O)C1=C(C)NC(=S)NC1C (stereo unspecified)	7%
CN(C)c1nc(C(F)(F)F)cc(=O)[nH]1	6%
C=CC[C@@H](Cc1ccc(F)cc1)C(=O)OC[C@@H]1CCCN1C(=O)[C@H](CC=C)CC(=O)N[C@H](CO)Cc1ccccc1	-10%
CCOc1cc(C(=O)Nc2ccc(S(=O)(=O)Nc3cc(OC)nc(OC)n3)cc2)cc(OCC)c1OCC	-6%
Cc1ccc(C2(CC(=O)O)CCOC(C)(C)C2)cc1 (stereo unspecified)	-1%
O=C(O)CC/C(=N\NC(=O)c1ccccc1)c1cccs1	-5%
N#Cc1ccccc1S(=O)(=O)N1CCN(CC(O)COc2ccccc2F)CC1 (stereo unspecified)	-4%
CC1=C(c2ccc(C)c(C)c2)S(=O)(=O)N(Cc2ccc(C(=O)NCc3cccc(C)c3)cc2)C1=O	0%
COc1ccc(-n2cnnc2SCC(=O)N2CCN(S(=O)(=O)c3ccccc3)CC2)cc1	10%
COc1cc(Cl)c(C)cc1NC(=O)CCc1nc2cccnc2n1-c1ccccc1	-14%
COc1ccc(N2CCN(C(=O)CSc3nnc(CNc4ccccc4)o3)CC2)cc1	0%
NS(=O)(=O)c1ccc(N/N=C/c2ccccc2C(=O)O)c([N+](=O)[O-])c1	-5%
CC(=O)c1sccc1NC(=O)CC(C)(C)CC(=O)O	11%
CCSc1nc(N)c(C#N)c(-c2ccco2)c1C#N	-14%
Cc1ccc(S(=O)(=O)N[C@H](C(=O)OCC(=O)NC(=O)NCc2ccco2)C(C)C)cc1	-1%
Fc1ccccc1/C=N/Nc1ncnc2nc[nH]c12	-2%
CC(C)CCNC(=O)c1ccc2c(c1)N(Cc1ccccc1F)C(=O)c1ccccc1S2=O (stereo unspecified)	-3%
CC(C)(C)C(=O)Nc1nnc(Cc2ccccc2)s1	10%
CCNC(=S)N1CCN(c2nc(-c3ccc(F)cc3)cs2)CC1	12%
CCOC(=O)c1cccc(NC(=O)c2cc3c(Cl)nc4ccc(C)cc4c3s2)c1	4%
O=C(NCC(=O)N1CCC2(CC1)NCCc1[nH]cnc12)c1ccc2ccccc2c1	-18%
CCC(C)n1c(=O)c2sccc2n2c(CCCC(=O)Nc3ccc(F)cc3)nnc12 (stereo unspecified)	2%
CCCCC/C=C\C/C=C\CCCCCCCC(=O)O	-14%&-16%&-10%
O=C(N/N=C/c1cccnc1)c1ccc(O)cc1	3%

Part of the list above, with the structure last.
VDR inhibitor,mol
-1%,Cc1ccc(S(=O)(=O)N[C@H](C(=O)OCC(=O)NC(=O)NCc2ccco2)C(C)C)cc1
-3%,Fc1ccc(NCc2nnc(SCc3nnc(-c4ccccc4)o3)n2Cc2ccccc2)cc1
2%,CCC(C)n1c(=O)c2sccc2n2c(CCCC(=O)Nc3ccc(F)cc3)nnc12 (stereo unspecified)
5%,CC(NC(=O)CN1C(=O)c2cccnc2Oc2ccc(Cl)cc21)c1ccccc1 (stereo unspecified)
-2%,CC(C)=CCOc1ccc([C@@H]2COc3c(ccc4c3C=CC(C)(C)O4)C2)c(O)c1
8%,O=C1C(C=Nc2ccccc2)=C(O)c2ccccc21

No new results follow: 2 of the compounds above.
Structure	VDR inhibitor
COc1cc(Cl)c(C)cc1NC(=O)CCc1nc2cccnc2n1-c1ccccc1	-14%
COc1ccc(N2CCN(C(=O)CSc3nnc(CNc4ccccc4)o3)CC2)cc1	0%

Next part
Structure	VDR inhibitor
Nc1nc(SCc2ccccc2)n[nH]1	17%
O=C(Cc1ccccc1F)c1ccc(O)cc1O	10%
Cc1cccc(N2CCN(C(=O)c3ccc(CS(=O)c4cccc(Cl)c4)o3)CC2)c1C (stereo unspecified)	12%
Cc1[nH]c(=O)[nH]c(=O)c1S(=O)(=O)N1CCC(C(=O)NC(C)c2ccccc2)CC1 (stereo unspecified)	-17%
O=C(c1ccc2nc(Cc3ccccc3F)oc2c1)N1CCCC1	-16%
CCOC(=O)N1CCc2c(sc3c2c(=O)n(-c2ccc(CC)cc2)c(=O)n3CC(=O)NCC2CCCO2)C1 (stereo unspecified)	-10%
COCCNC(=O)C(c1ccc(Cl)cc1)N(Cc1ccco1)C(=O)CCC(=O)Nc1ccccn1 (stereo unspecified)	-1%
COc1ccc(C(=O)O/N=C2\CCS(=O)(=O)c3sccc32)cc1	6%
CNc1nc(OC)nc(N(C#N)CN2C(=O)c3ccccc3S2(=O)=O)n1	-13%
CN(CC(=O)Nc1ccccc1Cl)C(=O)COC(=O)c1ccccc1[N+](=O)[O-]	-27%
CCOC(=O)c1cnc2c(-c3ccc(Cl)cc3)c(C)nn2c1N	18%
Nc1cc(=O)[nH]c(SCC(=O)Nc2ccc(N3CCCCC3)cc2)n1	-10%
Cc1cc(OCC(F)(F)C(F)(F)C(F)(F)C(F)F)nc(N)n1	-19%
C=CCOC(=O)N[C@@H](CCc1ccccc1)C(C(C)=O)C(C)=O	7%
O=C(O)COc1ccc(C=C2SC(=S)N(c3ccccc3)C2=O)cc1	-12%
Clc1ccc(CN2CCSCC2)cc1Cl	-6%
CCC(C)NC(=O)C1CCN(S(=O)(=O)c2ccc(Br)s2)CC1 (stereo unspecified)	-2%
COc1ccc(C2C(C(=O)O)CC(=O)N2c2ccc(OC)cc2)cc1 (stereo unspecified)	6%
CCc1nnc(NC(=O)CSc2nc3c([nH]c4ccccc43)c(=O)n2-c2ccc(C)cc2)s1	-2%
COc1ccc(-c2noc(N3CCC(C(=O)Nc4cc(OC)ccc4OC)CC3)n2)cc1	6%
Cc1ccnc(NC(=S)NC(=O)c2cncc(Br)c2)c1	-15%
CC1CCCN(C(=O)COC(=O)CSc2ccc(C(N)=O)cc2[N+](=O)[O-])C1 (stereo unspecified)	16%
COc1ccccc1NC(=O)CCn1cnc2onc(-c3ccc(F)cc3)c2c1=O	8%
CN1CCN(C2=C(NS(=O)(=O)c3ccccc3)C(=O)c3ccccc3C2=O)CC1	2%
O=C(c1ccc(S(=O)(=O)N2CCCCC2)cc1)N1CCN(Cc2ccc3c(c2)OCO3)CC1	-2%

Next section:
Structure	VDR inhibitor
CCOC(=O)c1c(-c2ccc(OC)cc2)csc1/N=C/N(C)C	9%
CC(C)N(C(=O)Cn1c(SCC(=O)NCc2ccc3c(c2)OCO3)nc2ccccc21)C(C)C	-3%
COc1ccc(C(CNC(=O)COc2cc(C)c(Cl)c(C)c2)N2CCCCC2)cc1 (stereo unspecified)	11%&15%
CCC(CC)CN1C(N(C)C)=NC[C@@H]1CC(C)C	-11%
CCNC(=O)NC(=O)C(C)OC(=O)c1cccn1C (stereo unspecified)	-1%
Cc1cccc(N2CCN(C(=O)c3ccccc3SCC(=O)N3CCCC3)CC2)c1C	-13%
COc1ccc(N2CCN(C(=O)CSc3ccc([N+](=O)[O-])cc3)CC2)cc1	-3%
COCCN(C)C(=O)CCc1nnc(Cc2ccc(-c3ccccc3)cc2)o1	6%
CCC(=O)N(Cc1ccc2c(c1)OCO2)Cc1cc2cc(OC)ccc2[nH]c1=O	9%
COc1cccc(NC(=O)c2cc(-c3ccccn3)nc3ccccc23)c1	0%
CC(C)C(NC(=O)OCc1ccccc1)C(=O)OCC(=O)N1CCCCC1 (stereo unspecified)	13%
COc1ccc2oc(C(=O)N(C)Cc3ccc4c(c3)OCCO4)c(C)c2c1	-8%
Cc1cc(C(=O)CN2C(=O)c3ccccc3C2=O)c(C)n1Cc1cccs1	13%
CC(C)(C)OC(=O)NCc1nc(N)n[nH]1	10%
O=C(Nc1ccc(NC(=O)c2ccco2)nc1)c1ccco1	-10%
COC(=O)c1ccccc1NC(=O)c1ccc(NC(=O)C2CCCO2)cc1 (stereo unspecified)	-6%
C[C@@H]1CN(Cc2nc(Cc3ccccc3F)no2)C[C@H](C)O1	19%
Cc1cc(-c2n[nH]c(=S)n2/N=C/C(Cl)=C/c2ccccc2)n[nH]1	?
CCOC(=O)/C(C#N)=C/c1cccc(C)c1	-6%
CCOC(=O)C1CCN(S(=O)(=O)c2c(C)[nH]c(C)c2C(=O)N2CCCCC2)CC1	10%
O=[N+]([O-])c1ccccc1S(=O)(=O)Nc1cccnc1	-18%
COc1ccc(C(=O)Nc2cc(C(F)(F)F)ccc2-n2cnc3ccccc32)cc1	9%
COC(=O)c1cccc(NS(C)(=O)=O)c1C	3%
CCOC(=O)c1cc2c(n(-c3ccc(C)cc3)c1=O)CCCC2=O	6%
Cn1cc(C(=O)c2ccc(Cl)cc2Cl)cc1C(=O)N/N=C(\N)COc1cccc(C(F)(F)F)c1	20%

(next part)
Structure	VDR inhibitor
COc1cc(C(=O)Nc2cccc(-c3nc4ncccc4o3)c2C)cc(OC)c1OC	-2%
O=C1OC[C@H]2CCCC[C@@H](CO)ON12	-16%
Cc1cccc(C)c1OCCCCn1cnc2ccccc2c1=O	5%
COc1ccc(-c2cc(C)no2)cc1S(=O)(=O)N1CCCN(Cc2ccc(F)cc2)C1	10%
CCN1CCN(C(=O)CN(C)S(=O)(=O)c2cc(C)ccc2OC)CC1	7%
CC(=O)Nc1cccc(Oc2ncnc3scc(-c4ccc(C(C)C)cc4)c23)c1	2%
COc1cccc(C(=O)Nc2cc3c(cc2N2CCCC2)n(C)c(=O)n3C)c1	-6%
CCOC(=O)C1=C(COC(=O)CCOc2cccc(C)c2)NC(=O)NC1C (stereo unspecified)	3%
COc1cc(/C=N/NC(N)=S)cc(Br)c1OCc1ccccc1F	2%
COc1nc(N(C)C)nc(N(C)c2cc(Cl)cc(Cl)c2)n1	-18%
N#Cc1ccc(CN2C(=O)NC3(CCCCCC3)C2=O)cc1	7%
CCSc1nnc(NC(=O)CCc2ccccc2)s1	10%
COc1ccc(C)c2sc(N3CCCC3)nc12	7%
CCCS(=O)(=O)Nc1cc(C(F)(F)F)ccc1OCCOC	-1%
COC(=O)N1C(C2CC2)=Cc2ccccc2C1CC(C)=O (stereo unspecified)	-9%
CC1CCN(C(=O)Cn2nc(C(F)(F)F)c3c2CCCC3)CC1	6%
COc1ccc(CC(=O)NNC(=O)CSc2ccc(C)cc2)cc1	-10%
CCOC(=O)CNC(=O)CSc1ccc2nnc(-c3ccc(F)cc3)n2n1	?

From PubChem BioAssay
